# VACV mCherry inh = vaccinia inhibition (mCherry reporter); AID 720579; Potency, µM (doses to about 36.5 µM), for inactives: at the top dose activity change, negative = inhibition, most hits filed as inhibitors; 310,000 tested, 0.63% active; Vaccinia virus mCherry reporter infection, fluorescence; about a quarter of the inactives have no number; active = well fitted inhibition curve with a large enough effect; inconclusive = small, poorly fitted or top-dose-only effect; inactive = no such curve, though single readings can be large or run the other way; tested in A549 cells; further: nearly all actives have a fitted effect of over 35% in size; inactives centre near -10
# Vaccinia Venus = inhibitors of vaccinia virus (Venus reporter) | AID 720580 | Potency, µM (highest dose often 36.5 µM), for the others: top-dose activity change, negative = inhibition, actives largely listed as inhibitors | Vaccinia virus Venus reporter expression, fluorescence | 330,000 tested, 0.46% active; active means well fitted inhibition curve with a large enough effect; inconclusive means small, poorly fitted or top-dose-only effect; inactive means no such curve, though single readings can be large or run the other way; tested in A549 cells; further: nearly all actives have a fitted effect of over 30% in size; inactives centre near -10
# Active calls of the source: *; i = inactive; ? = inconclusive; . = no result given; & = joins results of further samples; [ ] = remark or other dose. On the % scale 0 is the no-effect control and ±100 the full control effect; potency means the concentration at half of the fitted maximal effect.
SMILES,VACV mCherry inh,Vaccinia Venus
O=c1c2ccccc2nc(/C=C/c2ccccc2O)n1-c1ccc(Br)cc1,-11%,?
O=C(COc1ccccc1F)Nc1cc(S(=O)(=O)N2CCOCC2)ccc1N1CCOCC1,-3%,-8%
O=C(Nc1cccc(NC(=O)c2nccc3ccccc23)c1)c1ccco1,-16%,-22%
Cc1cccc(C)c1NC(=O)C1(C)CCC(=O)N1C1CC1 (stereo not drawn),2%,-9%
COc1ccc(NC(=O)N2CCC(c3ccccc3)C2)c(OC)c1 (stereo not drawn),i,-9%
CCCOc1ccc(Cn2c(=O)sc3ccccc32)cc1,-4%,-8%
Cc1ccc(C(O)c2ncc(-c3cccc4ccccc34)[nH]2)cc1F (stereo not drawn),3%,2%
CCOC(=O)C1=C(COC(=O)c2ccc(OC(C)C)cc2)NC(=O)NC1C (stereo not drawn),i,-5%
CN(C)c1ccc(NC(=S)N(CCc2ccccc2)C2CC(=O)N(c3c(Cl)cccc3Cl)C2=O)cc1 (stereo not drawn),i,-3%
CC1CC(C)(C)NC(=S)N1CCC(=O)N1CCN(Cc2ccccc2)CC1 (stereo not drawn),i,5%
CCCCCCCCN1C(=O)[C@H](CC(=O)NCC2CCCCC2)C[C@@]2(C(=O)OCC)CCC=C12,?,-20%
O=C(Nc1ccc(N2CCOCC2)cc1)c1cccc(-n2cnnc2)c1,-5%,1%
O=c1cc(Cl)[nH]c(=O)n1Cc1ccccc1,-11%,1%
CN(C)/C=C/C(=O)c1cnc(-c2ccccc2)s1,2%,15%
O=C(NCCN1CCN(Cc2ccccc2)CC1)c1cc2c(=O)[nH]c3ccccc3c2s1,-11%,-26%
CC(C)Oc1cc(NC(=O)CSCC(=O)Nc2cccc(C(F)(F)F)c2)c(Cl)cc1Cl,-7%,-29%
O=C(COC(=O)C1=COCCO1)Nc1ncc(Cl)cc1Cl,i,-13%
CN(C(=O)CSc1nc2ccccc2[nH]1)c1ccc(F)cc1,-10%,-6%
Cc1ccc(N2C(=O)C(Cl)=C(N3CCCCCC3)C2=O)c(C)c1,-22%,-22%
CC(NC(=O)c1ccccc1F)c1nnc(SCC(=O)Nc2nnc(C3CC3)s2)n1C (stereo not drawn),-12%,-9%
CCCC(=O)Nc1cc(OC)c(NC(=S)Nc2cccc(C)c2)cc1OC,?,-18%
Cc1ccc(C(C)C)c(OCCN(C)C)c1,-12%,-18%
COc1ccc(/C=C/C(=O)C2(O)CCCCC2)cc1OC,?,?
O=C(Nc1cccnc1Cl)c1cccc(S(=O)(=O)N2CCOCC2)c1,-19%,-3%
COc1cc2c(cc1OC)C(O)=CC(=O)C2=O,-3%,-5%
O=C(NCC1COc2ccccc2O1)c1cc2ccccc2o1 (stereo not drawn),.,-15%
C/C(CC(=O)Nc1cccc(C(F)(F)F)c1)=N\NC(=O)C1CCCCC1,i,-5%
O=C(/C=C/[C@H]1O[C@@H](n2cnc3c(NC(=O)c4ccccc4)ncnc32)[C@H](O)[C@@H]1O)NCc1ccc2c(c1)OCO2,10%,2%
CCCSCCCNC(=O)C1CCCN(C(=O)c2cnn(-c3ccccc3)c2-n2cccc2)C1 (stereo not drawn),0%,4%
CCOC(=O)c1nnc(-c2ccc(C)cc2)nc1Sc1ccccc1Cl,i,-9%
CCC(=O)N(C)CCc1cc2c(c(OC)c1/C=N/NC(=O)c1ccccc1O)OCO2,-15%,-12%
CN1CCN(CCCNC(=O)Cn2ncc3c4ccccc4n(C)c3c2=O)CC1,-16%,1%
COc1ccc(C2c3cc(OC)c(OC)cc3CCN2C(=O)c2ccccc2)cc1OC (stereo not drawn),6%,-26%
CCOC(=O)C1CCN(C(=O)CN(c2cc(OC)ccc2OC)S(=O)(=O)c2ccccc2)CC1,-20%,-1%
Cc1ccc(C)c(OCC(=O)O/N=C(\N)c2cccnc2)c1,13%,31%[activator]
COc1ccc(NS(=O)(=O)c2cccc(C(=O)NCCCN3CCCC3=O)c2)cc1,i,-13%
Cc1ccccc1C1=NC(C(F)(F)F)(C(F)(F)F)c2c(n(-c3ccc(F)cc3)c(=O)[nH]c2=O)N1,-11%,-18%
COc1ccc(NC(=O)c2ccc(=O)[nH]c2)cc1S(=O)(=O)N1CCOCC1,-6%,-11%
CCN(CC(=O)Nc1ccccc1C(F)(F)F)CC(=O)NC1CC1,-16%,-7%
COc1ccccc1N1CN(Cc2ccccc2)CNC1=S,-9%,-5%
CN(CC1COc2ccccc2O1)c1nc(-c2cccnc2)nc2ccccc12 (stereo not drawn),?,-15%
CC(C)NC(=O)N(C)C[C@@H]1Oc2ccc(NC(=O)CCN3CCOCC3)cc2CC(=O)N([C@@H](C)CO)C[C@@H]1C,-2%,-7%
c1cc2c(cc1C1CCCCC1)c1c3n2CCCNC3CCC1 (stereo not drawn),1%[1.46 µM],?
Cc1ccc(C(=O)Nc2cccc(C(=O)OCc3cc(=O)n4c5c(sc4n3)CCCC5)c2)cc1,-14%,-15%
COc1ccc(C2=[N+](C)CCn3cccc32)c(OC)c1,?,-21%
Cc1nn2c(NCCCn3ccnc3)cc(C(C)C)nc2c1-c1ccccc1,i,-17%
C=CCNC(=O)CSc1ccc(Cl)cc1,-15%,?
COc1ccccc1C(=O)N/C(=C/c1ccc(Br)cc1)C(=O)N1CCOCC1,-4%,-9%
CCCCn1c(N)c(N(CCOC)C(=O)COC(=O)c2cc(CCC)c(C)s2)c(=O)[nH]c1=O,-27%,-9%
COc1ccc(-n2c(SCC(=O)NCC3CCCO3)nc3ccccc3c2=O)cc1Cl (stereo not drawn),i,-19%
CCn1c(SCC(=O)c2cc(OC)ccc2OC)nnc1C(C)C,i,-16%
CSc1ccc(NC(=O)Cn2nnnc2-c2ccccc2F)cc1,-3%,-10%
N#Cc1cccc(-c2cncnc2-n2ccnc2)c1,i,-2%
O=C(N/N=C/c1c[nH]c2ccccc12)c1ccc(O)c(O)c1,0%,-5%
Cc1ccc(-c2c(C)n([O-])c3c([n+]2=O)CCC3)cc1,-3%,-8%
CC(=O)NC(O)C(=O)c1ccco1 (stereo not drawn),-5%,0%
O=C(CS(=O)(=O)c1ccc(F)cc1)NCc1ccccc1,-31%,-14%
CCC(C)NC(=O)c1ccc2c(c1)nc1n2CCCCC1 (stereo not drawn),-10%,-8%
C=C1[C@@H](O)[C@@H]2O[C@]3(CC[C@H](/C=C/[C@@H](C)[C@@H]4CC(C)=CC5(O[C@H](C[C@@](C)(O)C(=O)OC)CC[C@H]5O)O4)O3)CC[C@H]2O[C@@H]1[C@@H](O)C[C@H](C)[C@H]1OC2(CCCCO2)CC[C@H]1C (stereo partly drawn),1.3µM*,1.3µM*
CCCCn1c(=O)c(Cc2ccccc2)c(O)c2ccccc21,-8%,-10%
# (cont.)
SMILES,VACV mCherry inh,Vaccinia Venus
O=C(COC(=O)c1cccc(S(=O)(=O)N2CCCC2)c1)Nc1ccccc1Cl,-4%,-10%
COc1cccc(N(C(=O)c2nc3nccc(C)n3n2)c2nc3ccccc3s2)c1,?,?
CCOc1ccc(OCC)c(NC(=O)Nc2ccc3c(c2)N(C)C(=O)CS3)c1,4%,-22%
CCN(C(=O)Cn1c(=O)oc2cc(S(=O)(=O)N3CCCC3)ccc21)c1ccc(OC)cc1,?,-12%
CCN(CC)CCCNC(=O)c1cc(Nc2ccc(OC)cc2)nc2ccccc12,?,-9%
O=C1NC(=O)C(CSc2ccccc2)(c2ccccc2)N1 (stereo not drawn),-2%,-9%
O=C(COc1ccc(Cl)cc1)NNC(=S)NCc1ccccc1,i,7%
CC(NCc1cccs1)C(=O)NC1CCCCC1 (stereo not drawn),-7%,-9%
COc1ccc(C2=NN(c3ccccc3)C(c3cn(CCC(=O)O)nc3-c3ccccc3)C2)cc1 (stereo not drawn),-4%,-5%
Cc1nn(C)c(C)c1CNC(=O)c1nn2c(c1Cl)NC(c1cccs1)CC2C(F)(F)F (stereo not drawn),?,?
O=C(CNC(=O)c1cccs1)OCC(=O)c1ccccc1,-13%,-20%
Cc1ccc(CNC(=O)C2CCCN(S(=O)(=O)N3CCC(C)CC3)C2)cc1 (stereo not drawn),-14%,-11%
CC(C)(C)c1ccc(/C=C/C(=O)NCCCN2CCOCC2)cc1,i,-9%
O=C(CCc1nnc2ccc(N3CCC4(CC3)OCCO4)nn12)N1CCCCC1,-27%,-11%
CCN1CCC[C@H]1CNC(=O)c1c(O)c(Cl)cc(Cl)c1OC,-20%,-10%
O=[N+]([O-])c1cccc(CN2CCN(c3ncccn3)CC2)c1,-15%,-10%
CC(C)COc1ccc(C(=O)Nc2cc(-c3ccccc3)no2)cc1,-10%[7.34 µM],-6%[7.34 µM]
COc1cccc(CN2CCNC(=O)C2CC(=O)NC2CCCC2)c1OC (stereo not drawn),-17%,-4%
Cc1ccc(C(=O)Nc2ccc(S(=O)(=O)O)c3cc(S(=O)(=O)O)cc(S(=O)(=O)O)c23)cc1NC(=O)c1cccc(NC(=O)Nc2cccc(C(=O)Nc3cc(C(=O)Nc4ccc(S(=O)(=O)O)c5cc(S(=O)(=O)O)cc(S(=O)(=O)O)c45)ccc3C)c2)c1,-12%&-22%,-17%&-19%
COc1ccc(CCNC(=O)c2cnn3c(C(F)F)cc(C)nc23)cc1OC,-3%,-6%
COc1ccc(Cc2nc3ccccc3n2C)cc1,-9%,-13%
CC(C)CC(=O)N/N=C/c1c(N)n(C)c(=O)n(C)c1=O,-15%,-14%
O=C1CCO1,-11%,-5%
CCCCC(=O)NC1(C(F)(F)F)C(=O)N(Cc2ccco2)C(C)=C1C(=O)OC (stereo not drawn),-11%,-8%
O=C(NN=C1CCCCCCCCCCC1)c1ccncc1,-7%,-10%
OC(CBr)C[n+]1cccc2cc(Br)ccc21 (stereo not drawn),-6%,-19%
CC(/C=N/n1c(-c2cccnc2)n[nH]c1=S)=C\c1ccccc1,-13%,2%
CCN(CC(=O)Nc1c(F)cccc1F)C(=O)c1nc2nc(C)cc(C)n2n1,-14%,1%
COCCCn1c(=O)/c(=C/c2ccccc2OC(C)C)s/c1=C(\C#N)C(=O)Nc1ccc(C(=O)O)cc1,-6%,-25%
CSc1nsc(SC)c1NC(=O)OC1CCCCC1,-27%,-10%
COc1cccc(C(=O)N(Cc2cccs2)C2CCS(=O)(=O)C2)c1 (stereo not drawn),-4%,-3%
Cn1nc(C(F)(F)F)c(-c2ccccc2)c1NC(=O)CCC(=O)O,-2%,-11%
CCCCCCC1/C(=N/O)CCC1C(=O)OC (stereo not drawn),.,-22%
CC(NS(=O)(=O)c1ccc(Cl)cc1)C(=O)NCCC1=CCCCC1 (stereo not drawn),-10%,-10%
CCCN1CCN(CCCNC(=O)C(CC)n2nc(C)n3c(cc4occc43)c2=O)CC1 (stereo not drawn),-15%&-17%,-16%&-5%
CC(=O)Nc1ccc(C(=O)OCC(=O)N(C)C2CCCCC2)cc1,-4%,-4%
C[C@H](CO)N1C[C@H](C)[C@H](CN(C)C(=O)Nc2ccc(F)cc2)OCc2cnnn2CCCC1=O,i,-8%
Cc1cccc(C)c1NC(=O)C(c1cc2ccccc2o1)N1CCC(c2ccccc2)CC1 (stereo not drawn),-13%,-4%
CCOC(=O)CSc1nc2c([nH]c3ccccc32)c(=O)n1-c1ccc(OCC)cc1,-25%,-21%
N#Cc1cc2c(nc1SCC(O)CS(=O)(=O)Cc1ccccc1)CCCC2 (stereo not drawn),-7%,0%

# Structural class, those above containing an aryl thioether with sulfur outside any ring
SMILES,VACV mCherry inh,Vaccinia Venus
CN(C(=O)CSc1nc2ccccc2[nH]1)c1ccc(F)cc1,-10%,-6%
CC(NC(=O)c1ccccc1F)c1nnc(SCC(=O)Nc2nnc(C3CC3)s2)n1C (stereo not drawn),-12%,-9%
CCOC(=O)c1nnc(-c2ccc(C)cc2)nc1Sc1ccccc1Cl,i,-9%
C=CCNC(=O)CSc1ccc(Cl)cc1,-15%,?
COc1ccc(-n2c(SCC(=O)NCC3CCCO3)nc3ccccc3c2=O)cc1Cl (stereo not drawn),i,-19%
CCn1c(SCC(=O)c2cc(OC)ccc2OC)nnc1C(C)C,i,-16%
CSc1ccc(NC(=O)Cn2nnnc2-c2ccccc2F)cc1,-3%,-10%
O=C1NC(=O)C(CSc2ccccc2)(c2ccccc2)N1 (stereo not drawn),-2%,-9%
CSc1nsc(SC)c1NC(=O)OC1CCCCC1,-27%,-10%
CCOC(=O)CSc1nc2c([nH]c3ccccc32)c(=O)n1-c1ccc(OCC)cc1,-25%,-21%
N#Cc1cc2c(nc1SCC(O)CS(=O)(=O)Cc1ccccc1)CCCC2 (stereo not drawn),-7%,0%

# Carrying on:
SMILES,VACV mCherry inh,Vaccinia Venus
Cc1ccc(-c2csc3ncnc(Sc4nnnn4-c4ccccc4)c23)cc1,?,?
C=CCC[C@@H](Cc1ccc(F)cc1)C(=O)OC[C@H](Cc1c[nH]c2ccccc12)NC(=O)[C@H](CC=C)CC(=O)NCCO,?,?
CC(=O)Nc1ccc(-c2ccnc3c2CC(C(=O)NCCC(F)(F)F)O3)cc1 (stereo not drawn),-3%,-21%
CCOc1ccc(-c2cc(C)n3nc(C(=O)Nc4cc(Cl)ccc4O)cc3n2)cc1,7%,1%
COc1ccc(NC(=O)Cn2nnc(-c3ccccc3F)n2)cc1Cl,-5%,-7%
Cc1cc(-c2ccco2)n2c(nc3ccccc32)c1C#N,-7%,-8%
O=S(=O)(NNc1ncc(C(F)(F)F)cc1Cl)c1ccccc1,-8%,-10%
O=C(NCc1ccccc1)C(c1cccnc1)N(C(=O)c1csnn1)c1ccc(F)cc1 (stereo not drawn),i,1%
